VDR inhibitor: blocks the human vitamin D receptor; VDR-SRC2-3 peptide fluorescence polarization, 2 h; Potency, µM, for inactives: max response, negative = inhibition, most hits filed as inhibitors; 400,000 compounds, 0.93% hits; AID 504847; active = well fitted inhibition curve with a large enough effect; inconclusive = small, poorly fitted or top-dose-only effect, or another doubt; inactive = no such curve, though single readings can be large or run the other way; also: series mostly up to about 120 µM
Target sequence (P11473 whole entry, looked up): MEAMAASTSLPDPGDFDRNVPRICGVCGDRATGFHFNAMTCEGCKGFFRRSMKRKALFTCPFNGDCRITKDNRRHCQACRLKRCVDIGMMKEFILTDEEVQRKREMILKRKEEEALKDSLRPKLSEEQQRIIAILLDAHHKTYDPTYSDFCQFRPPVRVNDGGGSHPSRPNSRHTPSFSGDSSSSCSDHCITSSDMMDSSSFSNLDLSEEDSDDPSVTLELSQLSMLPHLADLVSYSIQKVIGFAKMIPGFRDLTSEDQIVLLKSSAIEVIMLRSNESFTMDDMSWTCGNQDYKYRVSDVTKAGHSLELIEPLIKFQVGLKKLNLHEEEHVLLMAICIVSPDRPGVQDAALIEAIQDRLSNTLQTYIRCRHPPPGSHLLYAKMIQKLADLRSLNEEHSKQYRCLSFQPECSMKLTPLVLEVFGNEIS
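FP read-out; VDR + SRC2-3 coactivator peptide; 23 nl compound by pintool; 2 h RT incubation; reagents held at 4 deg C, protected from light.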
* = called active by the depositor; ? = inconclusive. % is scaled to controls: 0 for no effect and ±100 for the full control effect; potency is read from the fitted curve at half-maximal effect.

| structure | VDR inhibitor |
| --- | --- |
| Cc1cc(C)n(S(=O)(=O)c2cc(C(=O)O)c(Cl)cc2Cl)n1 | 4.7% |
| O=C(NCC1CCCO1)c1cc2cc(F)ccc2[nH]1 (configuration not stated) | 16.6% |
| O=C(c1ccco1)N1CCN(C(=O)C2CCCN(S(=O)(=O)c3cccc4nsnc34)C2)CC1 (configuration not stated) | 1.8% |
| NS(=O)(=O)Nc1c(Br)cc(Br)c2cccnc12 | ? |
| COC(=O)c1cc2sccc2n1CC(=O)Nc1cc(Cl)ccc1OC | -4.2% |
| CC(=O)N1N=C(c2ccc(Cl)cc2)CC1c1ccco1 (configuration not stated) | -15.9% |
| Cc1ccc(-c2nc3cnccn3c2Nc2ccc3c(c2)OCO3)o1 | -19.3% |
| O=C(Nc1ccc(F)cc1)C1C2CCC3C(CCC21)C3(Cl)Cl (configuration not stated) | -19.1% |
| CCc1nnc(NC(=O)COc2ccc3c(c2)OCO3)s1 | 1.7% |
| CCOC(=O)C1(CC2CC2)CCN(S(=O)(=O)/C=C/c2ccccc2)CC1 | 8.2% |
| Cc1nn2c(N3CCN(C)CC3)cc(C(C)(C)C)nc2c1-c1ccccc1 | 25.0% |
| COc1ccc(C2C(=O)N(C3CCCCC3)CC(=O)N2Cc2ccco2)cc1 (configuration not stated) | 7.4% |
| C#CCOCCOCCOCCNc1nc(N2CCOCC2)nc(N2CCN(C(=O)CCCCCCCCCCNC(=O)[C@@H]([C@H](C)O)n3cc(C)nn3)CC2)n1 | -18.0% |
| Cc1ccc(S(=O)(=O)Oc2ccc(/C=C3/N=C(c4ccccc4)OC3=O)cc2)cc1 | ? |
| COc1ccccc1-n1nnnc1SCC(=O)Nc1ccc(C)c(N)c1 | -11.1% |
| Cc1ccc(C(C)C)c(OCC(O)CN2CCOCC2)c1 (configuration not stated) | 6.5% |
| O=C(Nn1c(C2CCCCC2)nc2ccccc2c1=O)c1ccc(Cl)c([N+](=O)[O-])c1 | -8.9% |
| O[C@@H]1CO[C@H]2[C@@H]1OC[C@@H]2O | 9.6% |
| CCc1ccc(C(C)NC(=O)c2ccc3c(c2)OCO3)cc1 (configuration not stated) | -5.7% |
| CCCCn1c(SCc2ccccc2C#N)nc2c(sc3ccccc32)c1=O | -9.2% |
| O=c1c2ccccc2nc2n1CC/C2=C/N1CCN(c2cccc(C(F)(F)F)c2)CC1 | -57.4% |
| CCc1ccccc1NC(=O)COc1ccc2c(c1)OCO2 | ? |
| Cc1oc(-c2ccc(Cl)cc2)nc1Cn1c(=O)cc(C)c2c(C)nn(-c3cccc(F)c3)c21 | -1.9% |
| Cc1cc(C)n(C(=O)c2ccc(C)c(S(=O)(=O)N3CCCCC3)c2)n1 | -8.2% |
| Cc1cc2oc(=O)cc(Cn3ncc(Cl)c(Cl)c3=O)c2cc1Cl | ? |
| CC(CNC(=O)CCc1cn(Cc2ccccc2Cl)c2ccccc12)c1ccccc1 (configuration not stated) | 8.1% |
| CC[C@@H](C)[C@H](NC(=O)Cc1c(C)c2cc3c(C)coc3c(C)c2oc1=O)C(=O)O | -8.3% |
| CCCCC(=O)Nc1cccc(NC(=O)c2ccc(Br)cc2)c1 | 3.7% |
| CC(=O)c1cccc(S(=O)(=O)N2CCC(C(=O)N(C)Cc3ccc(Cl)s3)CC2)c1 | 7.1% |
| CCCCCCCN(c1ccccc1)[C@@H]1C[C@H]2CCCC(=O)N3CC[C@@H](C1)[C@@H]23 | -17.5% |
| Cn1c2ccccc2c2c3c(c4c5ccccc5n(CCC#N)c4c21)CNC3=O | -0.5% |
| CC1Cc2ccccc2N1S(=O)(=O)c1nnc(NC(=O)c2ccccc2)s1 (configuration not stated) | 5.4% |
| Cc1onc(-c2ccccc2Cl)c1C(=O)NCC(=O)O | -7.6% |
| CC(C)(C)C1CCC(=O)N(CCOc2ccccc2)CC1 (configuration not stated) | -9.2% |
| Cc1c(NC(=O)C(C)OC(=O)COc2cccc3c2OC(C)(C)C3)c(=O)n(-c2ccccc2)n1C (configuration not stated) | -12.8% |
| COc1ccc2c(=O)c3c(=O)n(Cc4ccco4)c(-c4ccccc4)nc3oc2c1 | 1.9% |
| Cc1cc(C(=O)N/N=C/C=C/c2ccc3c(c2)OCO3)n[nH]1 | 12.4% |
| CC(=O)NCCCNS(=O)(=O)c1ccc(C)cc1 | 1.9% |
| O=C(COC(=O)/C=C/c1cccs1)Nc1nc(-c2cccc(Br)c2)cs1 | 5.2% |
| O=C(CCCOc1ccccc1)Nc1cccc(C(=O)O)c1 | 13.3% |
| CN(C)/C=C(\C#N)C(N)=C(C#N)C#N | -8.8% |
| O=C(CSc1nnc(-c2ccccc2F)n1C1CCCCC1)N1CCCC1 | 4.0% |
| O=C(COC(=O)/C=C/c1ccccc1F)Nc1nnc(-c2ccccc2)o1 | 1.1% |
| Cc1cc(O)c(C=O)c2c1C(=O)Oc1c(COC(=O)/C=C/C(=O)O)c(O)c(C(=O)O)c(C)c1O2 | 6.31µM* |
| CCc1ccc(-n2nc(C)c3c(C)cc(=O)n(CC(=O)N(CC)Cc4ccccc4)c32)cc1 | 21.5% |
| CC1(C)CCCC2=C1CC1C(=O)N(O)C(=O)C1C2 (configuration not stated) | -9.0% |
| COc1ccc(C=NNC(=S)Nc2ccc(F)cc2)cc1OC | -7.6% |
| Cc1ccc(S(=O)(=O)N2[C@@H](c3ccc(C#N)cc3)C(C(=O)O)=C[C@H]2C(C)(C)C)cc1 | -0.6% |
| CCc1ccccc1NC(=O)C(C#N)Cc1cccnc1 (configuration not stated) | -3.5% |
| CCOC(=O)NC(Nc1ccc(C)cn1)(C(F)(F)F)C(F)(F)F | 13.6% |

(list continues)
| structure | VDR inhibitor |
| --- | --- |
| CC(C)(C)[C@H]1COC(=O)[C@H](NC(=O)OCC2c3ccccc3-c3ccccc32)C/C=C\C[C@@H](CC(=O)N(CCO)Cc2ccccc2)C(=O)N1 | 19.0% |
| CCOC(=O)N1CCN(S(=O)(=O)c2ccc3c(c2)oc(=O)n3C)CC1 | -6.1% |
| COCCNC(=O)Nc1ccc2c(c1)N(C)C(=O)CS2 | 2.3% |
| COc1ccc(C(C(=O)NC2CCCC2)N(Cc2cccnc2)C(=O)c2snc(C(N)=O)c2N)cc1OC (configuration not stated) | -0.8% |
| Cc1nn(Cc2ccccc2)c(C)c1NC(=O)CCCn1nc([N+](=O)[O-])cc1C | 6.1% |
| CCOc1cc(C2c3c(oc4ccccc4c3=O)C(=O)N2Cc2ccc3c(c2)OCO3)ccc1O (configuration not stated) | 7.1% |
| CNCC(=O)Nc1ccc(OC(F)(F)F)cc1 | -19.6% |
| O=S(=O)(c1cccc(Br)c1)N1CCN(c2ncnc3scc(-c4ccccc4)c23)CC1 | -1.8% |
| CCc1ccc(-c2cc(C(=O)NN3CCOCC3)c3ccccc3n2)s1 | -13.9% |
| COc1ccccc1N1CCN(C(=O)Cn2c(=O)oc3cc(S(=O)(=O)N4CCCC4)ccc32)CC1 | 9.5% |
| COc1ccc(C(=O)O)cc1Nc1nc2ccc(C)cc2n2cnnc12 | -12.3% |
| CCN(CC)S(=O)(=O)c1ccc(C(=O)NCC(=O)NCCCc2ccccc2)cc1 | -12.9% |
| Cc1ccc2sc(N3CCN(C(=O)C4COc5ccccc5O4)CC3)nc2c1C (configuration not stated) | -4.1% |
| O=C(COC(=O)c1ccc2ncsc2c1)Nc1ccccc1Br | 4.2% |
| CC(=O)OCC(NC(=O)C(COCc1ccccc1)NC(=O)OC(C)(C)C)C1OC(n2cc(F)c(=O)[nH]c2=O)C(OC(C)=O)C1OC(C)=O (configuration not stated) | -14.7% |
| CC(=O)c1cnn(-c2ccc(Cl)cc2)c1C | 2.5% |
| Cn1c(CCN2CCN(c3ccccn3)CC2)nc2cc(NC(=O)COc3ccc([N+](=O)[O-])cc3)ccc21 | 15.7% |
| CC(CCc1ccccc1)NC(=O)COC(=O)C12CC3CC(CC(Br)(C3)C1)C2 (configuration not stated) | 3.5% |
| Cc1ccc(S(=O)(=O)c2nc(NCc3ccc4c(c3)OCO4)sc2Cl)cc1 | 2.2% |
| Cc1cc([N+](=O)[O-])ccc1NCc1cccc([N+](=O)[O-])c1 | 15.2% |
| O=S1(=O)CCOC[C@H](Cc2ccccc2)N1Cc1ccc(F)cc1 | 1.0% |
| CCOC(=O)N/N=C\c1ccc(OC/C=C/c2ccccc2)cc1 | 10.5% |
| COc1ccc(CCN2C(=O)NC(NS(=O)(=O)c3ccccc3)(C(F)(F)F)C2=O)cc1OC (configuration not stated) | 12.9% |
| CC(C)Nc1ccc(C(CC(N)=O)NC(=O)Cc2ccc(Br)cc2)cc1[N+](=O)[O-] (configuration not stated) | -7.8% |
| O=S(=O)(Nc1ccc(S(=O)(=O)N2CCCC2)cc1)c1ccc(F)cc1 | -9.9% |
| CC1CN(C(=O)CNC(=O)Cc2cccc3ccccc23)CC(C)O1 (configuration not stated) | -5.7% |
| COC(=O)C1=C(C)OC(N)=C(C#N)C1c1c(C)nn(-c2ccccc2)c1Cl (configuration not stated) | -5.1% |
| O=C(CCN1C(=O)c2cccc3cccc(c23)C1=O)N1CCN(c2ccccc2F)CC1 | -7.7% |
| Cc1ccc2c(c1)c(=O)c(S(=O)(=O)c1ccc(C)c(C)c1)cn2CC(=O)Nc1ccccc1 | -0.3% |
| O=C(Cc1cccs1)Nc1nc2ccccc2s1 | 8.5% |

New compounds follow.
canonical_smiles	VDR inhibitor
CC1C/C(=N\Nc2ccc(S(N)(=O)=O)cc2[N+](=O)[O-])CC(C)(C)C1 (configuration not stated)	-8.1%
N#Cc1c(-c2cccs2)nc(SCC(=O)c2cccs2)[nH]c1=O	6.8%
Cc1cc(C)c(C(N)=O)c(NC(=O)Nc2ccccc2Cl)n1	17.2%
COc1ccc(OC)c(C(=O)c2ccc(C(=O)Nc3ccc4ccccc4c3)cc2)c1	-5.2%
Clc1ccc(-c2nnc3n2-c2ccccc2SC3)cc1	18.4%
Oc1ccc(CN2CCN(c3ccccc3)CC2)c2cccnc12	14.8%
Clc1ccc(-c2nc(-c3ccncc3)no2)c(Cl)c1	-3.8%
CC(On1nnc2ccc(S(=O)(=O)N3CCOCC3)cc21)C(=O)Nc1ccccc1F (configuration not stated)	-1.3%
O=C(Cc1ccsc1)Nc1ccc(S(=O)(=O)C(F)F)cc1	11.5%
Cn1cnc2c(SCc3ccccc3)ncnc21	-6.0%
CC(=O)c1ccc(NC(=S)NC(C)CCc2ccccc2)cc1 (configuration not stated)	-26.8%
O=C(COc1ccc(S(=O)(=O)N2CCOCC2)cc1Cl)NC1CCCCC1	-2.6%
CCN(CC)S(=O)(=O)c1cc(NC(=O)COc2ccc(C#N)cc2OC)ccc1C	8.6%
CCCCn1c(=O)[nH]c(=O)c2c1nc(-c1ccc(C#N)cc1)n2C1CCCC1	-7.3%
CCSc1nc(-c2ccc(OC)cc2)cc(-c2ccccc2)c1C#N	-0.8%
O=C(c1cccc(S(=O)(=O)N2CCCC2)c1)N(Cc1ccco1)C1CCS(=O)(=O)C1 (configuration not stated)	-1.5%
Cc1ccc(C(=O)N/C(=C\c2ccc(F)cc2)C(=O)NCc2ccncc2)cc1	-4.5%
Cc1cc(C)c2c(CC(=O)Nc3cc(C(F)(F)F)ccc3Cl)coc2c1	6.9%
O=S(=O)(Nc1nc2ccccc2nc1NCC1CCCO1)c1cc(Cl)ccc1Cl (configuration not stated)	3.3%
O=C(Nc1ccc(Cl)cn1)C1CCCN1S(=O)(=O)c1ccccc1 (configuration not stated)	-3.5%
CCS(=O)(=O)c1ncc(CO)n1CCc1ccccc1	22.4%
COc1ccc(NC(=O)C(c2ccc(C)cc2)N(C)C(=O)c2ccc(=O)[nH]c2)cc1 (configuration not stated)	6.2%
O=C(CSc1ccc2c(c1)OCCO2)Nc1ccc(Br)cc1	-4.1%
Cc1ccc2nc(N(CCN(C)C)C(=O)c3ccc4ccccc4c3)sc2c1	-3.3%

Rewritten with the structure last: entries from further up
VDR inhibitor	Structure
3.3%	O=S(=O)(Nc1nc2ccccc2nc1NCC1CCCO1)c1cc(Cl)ccc1Cl (configuration not stated)
6.9%	Cc1cc(C)c2c(CC(=O)Nc3cc(C(F)(F)F)ccc3Cl)coc2c1
-3.3%	Cc1ccc2nc(N(CCN(C)C)C(=O)c3ccc4ccccc4c3)sc2c1
-4.1%	O=C(CSc1ccc2c(c1)OCCO2)Nc1ccc(Br)cc1
22.4%	CCS(=O)(=O)c1ncc(CO)n1CCc1ccccc1
6.2%	COc1ccc(NC(=O)C(c2ccc(C)cc2)N(C)C(=O)c2ccc(=O)[nH]c2)cc1 (configuration not stated)
-4.5%	Cc1ccc(C(=O)N/C(=C\c2ccc(F)cc2)C(=O)NCc2ccncc2)cc1

Later entries:
canonical_smiles	VDR inhibitor
COc1ccc(CCN2CC(C(=O)NCC3(O)CCCCC3)CCC2=O)cc1 (configuration not stated)	-9.5%
CC1(OC(=O)c2ccco2)C(=O)C=C2C=C(c3ccsc3)OC=C2C1=O (configuration not stated)	-19.9%
CN1CCN(c2ncnc3c2cnn3-c2cccc(Cl)c2)CC1	-0.3%
COc1cc2c(cc1OC)CN(CC(=O)Nc1ccccc1SC)CC2	-7.2%
C/C(=N\NC(=O)c1ccc(COc2ccccc2)cc1)c1ccncc1	1.8%
Cc1ccccc1NC(=O)c1sc2nc3c(cc2c1N)CN(Cc1ccccc1)CC3	-12.3%
CCOC(=O)CSc1cc(CSc2ccccc2)nc(-c2ccccc2)n1	-3.8%
CCC(COC(=O)Nc1cccc(C)c1)NC(=O)OCC(C)C (configuration not stated)	4.6%
Cc1ccc(C(=O)Nc2cnc3sc(C)nn3c2=O)cc1	0.3%
CCOC(=O)C(C)Oc1ccc(C2NC(=O)NC(C)=C2C(=O)Nc2ccccc2C)cc1 (configuration not stated)	5.0%
CCOC(=O)COc1cc(-n2c(=S)[nH]c3cc(OC)c(OC)cc3c2=O)c(Cl)cc1Cl	-6.2%
Cc1ccccc1NC(=O)/C(C#N)=C\c1cc(C)n(-c2ccc(C(=O)O)cc2)c1C	7.1%
O=C(NCc1cccn1Cc1ccccc1)Nc1cccc(C(F)(F)F)c1	16.6%
O=c1c(-c2ccc(F)cc2)nc2cnc(N3CCOCC3)nc2n1C1CC1	?

High-throughput results as filed in PubChem BioAssay.

These rows are one share of the data, so the mix of outcomes need not match the whole.
